# GALR2 ag: agonists of human galanin receptor 2 (GALR2); AID 803; O43603; activation, %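 (tested at 5 µM)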; 140,000 tested, 0.48% active; GALR2-expressing cells, agonist activation read-out;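 active = above mean plus 3 SD of all compounds, about 5% in these data, not always enough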;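 note: 0% = vehicle buffer wells and 100% = reference agonist at full effect; tested in CHO reporter cells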
# Target sequence (O43603 whole entry, looked up): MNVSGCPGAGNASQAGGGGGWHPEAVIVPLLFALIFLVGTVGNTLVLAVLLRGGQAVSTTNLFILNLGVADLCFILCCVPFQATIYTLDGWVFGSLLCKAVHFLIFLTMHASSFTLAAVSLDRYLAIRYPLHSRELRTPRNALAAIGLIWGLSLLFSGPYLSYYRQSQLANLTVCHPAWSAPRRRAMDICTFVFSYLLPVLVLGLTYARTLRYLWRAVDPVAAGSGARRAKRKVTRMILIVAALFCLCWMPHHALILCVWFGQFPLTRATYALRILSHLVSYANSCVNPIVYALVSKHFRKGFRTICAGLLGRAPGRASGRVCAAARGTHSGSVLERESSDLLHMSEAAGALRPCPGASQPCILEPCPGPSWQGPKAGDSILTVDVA
# PKD1 inh: blocks activity of human protein kinase D1; Q15139; PKD1 kinase fluorescence polarization assay; inhibition, %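 (about 10 µM by stock and volumes)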; 200,000 tested, 0.056% active; AID 797;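 active = inhibition of 50% or more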;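 note: controls were vehicle for no effect and a reference inhibitor for full effect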
# Insulin prom inh: TRM-6 insulin promoter activity inhibition | TRM-6 cells (human fetal islet line), insulin promoter-eGFP reporter, imaging; reporter expression induced with tamoxifen | 130,000 tested, 0.9% active | inhibition, % at 2 µM;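 active = inhibition above the mean plus 3 SD, with well images judged a real hit on visual review, cut at about 60% in these data, passing the limit was not always enough; inconclusive = inhibition over the cutoff but images rejected on review; inactive = inhibition not above the cutoff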
# RGS16-Gao: RGS16-Galphao interaction regulator (human) | O15492+P09471 | bead-based flow cytometry RGS16-Galphao binding, fluorescence; actives lie on both sides | binding response (% of control), % at 10 µM | 220,000 tested, 0.38% active | AID 1441;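 active = below 25% or above 175%, edge rows of some plates excepted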;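 note: Galphao activated by GDP with aluminum fluoride before binding; 100% = wells without compound and 0% = beads without RGS; some results beyond the cut were filed as inactive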
# Target sequence (O15492 whole entry, looked up): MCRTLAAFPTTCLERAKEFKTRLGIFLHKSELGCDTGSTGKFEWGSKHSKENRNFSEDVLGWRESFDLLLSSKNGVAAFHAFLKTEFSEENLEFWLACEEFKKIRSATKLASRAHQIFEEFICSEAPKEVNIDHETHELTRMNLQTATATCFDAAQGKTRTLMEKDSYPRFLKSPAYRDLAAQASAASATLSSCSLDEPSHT
# Target sequence (P09471 whole entry, looked up): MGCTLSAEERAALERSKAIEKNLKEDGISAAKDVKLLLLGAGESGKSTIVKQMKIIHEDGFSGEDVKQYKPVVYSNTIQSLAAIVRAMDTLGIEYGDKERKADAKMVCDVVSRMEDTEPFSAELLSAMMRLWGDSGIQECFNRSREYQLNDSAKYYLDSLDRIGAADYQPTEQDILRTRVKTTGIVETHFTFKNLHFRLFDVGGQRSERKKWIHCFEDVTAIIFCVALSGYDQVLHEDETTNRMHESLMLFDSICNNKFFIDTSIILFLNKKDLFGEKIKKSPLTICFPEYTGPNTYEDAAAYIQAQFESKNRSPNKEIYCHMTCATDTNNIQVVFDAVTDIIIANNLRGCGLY
# HSV augment: HSV replication enhancement; HSV replication augmentation in cells, fold increase; maximum fold increase; 220,000 tested, 0.005% active;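 active = peak rise of 1.5-fold or more in the series; inconclusive = self-fluorescent or not available for retest; tested in PC3 cells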;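 note: first round at 10 µM; read as green reporter fluorescence; hits show the peak of a series up to 25 µM; 1 = signal of infected wells without compound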
# Insulin prom inh cell count: further read-out of Insulin prom inh, marked with its call; normalized cell count, %; measured here: cell count, toxicity; reference of the scale not given here;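 cells exposed to compound for 48 h; stained nuclei by imaging scaled within each plate; lower means fewer cells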
# HSV augment primary fold: recorded beside HSV augment, whose call it bears; fold increase; compound at 10 µM; measured here: primary screen fold increase 10 uM; tested in PC3 cells;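 GFP signal in the first replicate; 1 = infected wells without compound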
# * = called active by the depositor; i = inactive; ? = inconclusive; . = not tested or not shown; & = joins results of further samples. Not a hit list; any-hit rate near 1.1%.
SMILES,GALR2 ag,PKD1 inh,Insulin prom inh,Insulin prom inh cell count,RGS16-Gao,HSV augment,HSV augment primary fold
CONC(=O)C1CCN(C(=O)OCc2ccccc2)CC1,-2.7,-3,10,53,87,i,0.86
Cc1cc(C)n(-c2nc3nonc3nc2-n2nc(C)cc2C)n1,-1.3,-12,-28,249,45,i,1
CCC(=O)Nc1ccc(-c2csc(C)n2)cc1,1.0,-12,3,152,103,i,0.97
Cn1c(SCC(=O)NC(=O)NCc2ccco2)nnc1-c1ccccc1,-0.8,-15,11,48,88,i,1.1
CCn1cc(C(=O)NCc2ccco2)c(=O)c2cc(F)c(N3CCN(C(=O)c4ccco4)CC3)cc21,-1.5,11,.,.,97,i,0.83
COc1ccc(NC(=O)Nc2ccccc2F)cc1,-1.1,-11,16,111,101,i,0.91
COc1ccc2c(c1)O[C@@H](c1cccc(C(F)(F)F)c1)[C@H](OC(=O)N[C@H]1CCCc3ccccc31)C2=O,-1.9,3,10,69,111,i,1.2
O=C(COC(=O)CCc1ccc(S(=O)(=O)N2CCOCC2)cc1)Nc1ccc(Cl)cn1,-2.7,0,.,.,99&107,i,1.2
O=S(=O)(Nc1ccc(S(=O)(=O)Nc2nccs2)cc1)c1ccc2c(c1)OCCO2,-1.4,5,5,120,101,i,1
O=C(CN1CCC(N2CCCCC2)CC1)N1CCCc2ccccc21,-1.5,-4,-30,27,111,i,0.94
Brc1ccccc1C1CC(c2ccccc2)=Nc2ccccc2N1 (centres undefined),-0.4,4,10,119,109,i,0.96
COc1cccc(C2=NN(C(=O)c3ccccc3)C(O)(C(F)(F)F)C2)c1 (centres undefined),-0.5,-3,11,138,108,.,.
Cc1ccc(C)c(N2CCN(C(=O)c3cc4sccc4n3C)CC2)c1,-1.6,3,-18,69,95,i,0.96
CCc1noc(C)c1C(=O)Nc1nnc(C2CCCCC2)s1,.,2,-67,105,103,i,0.95
Cc1cc(NC(=O)C2CC(c3ccccc3Cl)=NO2)no1 (centres undefined),-3.1,0,0,132,101,i,0.95
Cc1ccc(-n2c(CSc3nc(C)cc(C)n3)nnc2SCC(=O)Nc2nccs2)cc1,.,.,.,.,104,i,0.81
O=C(c1cc2ccccc2o1)N1CCCC1,.,-1,.,.,113,i,0.91
Cc1ccc(C)c(N(C(=O)c2snc(C(N)=O)c2N)C(C(=O)NCC2CCCO2)c2cccs2)c1 (centres undefined),.,2,-123,91,99,i,0.93
Cn1c(=O)c2c(O)cc(=O)n(-c3ccccc3)c2n(C)c1=O,-0.4,-10,0,81,101,.,.
Cc1cc2ncn(C(=O)c3ccc4c(c3)OCO4)c2cc1C,-1.6,-7,.,.,105,i,1.1
CN1CCN(C(=O)CCn2nc(-c3ccccc3)c3ccccc3c2=O)CC1,0.9,-12,29,136,92,i,1.1
COC(=O)c1sc(NC(=O)CSc2nc3cccnc3n2C2CCCCC2)nc1C,-3.1,0,.,.,104,i,0.86
O=C(CSc1nnnn1C1CCCCC1)Nc1ccc2c(c1)OCO2,-2.1,9,17,128,107,i,0.89
COc1c(C=O)c(CCN(C)C(=O)c2ccc(F)cc2)cc2c1OCO2,.,.,.,.,105,i,1
Cc1ccc(S(=O)(=O)N2CCOCC2)cc1C(=O)NC1CCCCC1,-0.2,-11,-52,96,99,i,1.1
Cc1ccc(C)n1-c1ccc(C(=O)NCC2CCCO2)cc1 (centres undefined),-1.0,-3,.,.,90,i,0.82
Cc1sc(N/N=C/c2cccnc2)nc1-c1ccccc1,-1.2,-12,.,.,89,i,0.81
Cc1ccc(-c2cn(-c3ccccc3)c(SCC(=O)NC3CCS(=O)(=O)C3)n2)cc1C (centres undefined),-0.2,-9,-24,71,100,i,0.92
Fc1ccc(-n2c(Cc3cccs3)n[nH]c2=S)cc1Cl,.,0,-76,104,91,i,0.85
CCOc1ccc(NC(=O)CSc2nc3ccccc3c(=O)n2Cc2cccs2)cc1,-0.8,-1,-11,95,-1.2*,i,0.98
Cc1ccnc(NS(=O)(=O)c2ccc(NC(=O)c3ccc(Br)o3)cc2)n1,.,-2,6,123,102,i,1
CCC(C(=O)NCc1ccco1)n1nc(-c2ccc(OC)cc2)ccc1=O (centres undefined),2.3,-4,-71,77,103,i,0.94
CC(=O)c1cccc(NC(=O)CN2C(=O)COc3ccc(Cl)cc32)c1,-3.1,4,48,119,103,i,0.86
CC(C)(C)c1ccc(-c2cc(N)n[nH]2)cc1,-3.2,-2,.,.,101,i,0.95
CCOP(=O)(OCC)C(C)(C)NC(=O)c1cc([N+](=O)[O-])cc([N+](=O)[O-])c1,-0.2,-4,0,76,.,i,0.86
CCCOC(=O)C1=C(C)N(C)C(=O)NC1c1cc2c(cc1[N+](=O)[O-])OCO2 (centres undefined),.,-2,.,.,94,i,0.99
N#Cc1nc(-c2ccco2)oc1N1CCC(Cc2ccccc2)CC1,0.2,-1,-3,95,97,i,0.9
C1CSC2(N1)C1CC3CC(C1)CC2C3 (centres undefined),-2.4,-8,13,121,108,i,1.1
O=C(CN1C(=O)CSc2ccccc21)N/N=C/c1ccco1,.,.,.,.,113,i,1
C/C(=N\NC(=O)c1ccccc1)c1nc2ccccc2n1C,-0.2,0,21,115,109,i,0.86
CC(C)CCNC(=O)CCC(=O)NNc1nc2ccccc2c2nc(-c3ccccc3)nn12,-0.5,3,.,.,164,i,0.92
Clc1ccc(OCc2nnc(SCc3nc4ccccc4[nH]3)n2Cc2ccco2)cc1,-1.3,-6,-129,105,104,i,1.1
CCOc1ccc(C2/C(=C(/O)c3ccc(OC)cc3)C(=O)C(=O)N2c2cc(C)on2)cc1OC (centres undefined),-0.8,2,-8,101,111,i,1.1
Fc1ccc(C2CC(c3ccccc3)n3ncnc3N2)cc1 (centres undefined),-1.9,0,-18,131,102,i,0.8
COc1ccc(-n2c(SCC(=O)N3CCOCC3)nc(O)c(Cc3ccccc3)c2=O)cc1,-3.1,-2,-57,100,93,i,0.81
CC(=O)c1c(COC(=O)c2ccccc2Cl)nc2ccccc2[n+]1[O-],.,.,.,.,96,i,0.98
Nc1nonc1C(=O)NCCNCc1ccccc1OCc1ccc(F)cc1,-0.4,6,-65,117,91,i,0.85
N#Cc1sc2nc(-c3ccccc3)cc(C(F)(F)F)c2c1N,.,-1,-100,119,96,i,1.1
Cn1c(=O)c(Cc2ccccc2)c(O)c2ccccc21,-0.6,-4,21,85,99,i,1
O=C(Nc1ccccc1)/C(=C\c1cccs1)NC(=O)c1ccccc1,0.2,-2,7,112,100,i,1
COc1cccc(-c2cc(C(F)(F)F)nc(N3CCC(C)CC3)n2)c1,-1.9,17,.,.,98,i,0.98
CCN1CCOC(CC(=O)Nc2ccc([N+](=O)[O-])cc2)C1=O (centres undefined),.,.,.,.,101,i,1
CCOc1cc(/C=C2\SC(=S)N(N3CCOCC3)C2=O)ccc1O,.,.,.,.,99,?,.
CCOC(=O)N1CCN(/C=C(\C#N)c2nc3ccccc3s2)CC1,-1.3,-1,-7,85,108,i,0.86
CCOC(=O)C1(c2ccccc2)NC(c2ccccc2C)C2C(=O)N(c3ccc4c(c3)OCO4)C(=O)C21 (centres undefined),-1.1,-7,-31,100,108,i,1
O=C(COC(=O)/C=C/c1cccc(Br)c1)NCCC1=CCCCC1,-0.9,-6,-57,84,106,i,0.96
COc1cc(CNCc2ccccn2)ccc1OCc1ccccc1Cl,0.4,1,.,.,106,i,0.59
Clc1ccc(/C=C/c2nc3ccccc3[nH]2)cc1,-1.2,13,.,.,106,i,1
CC1CC(C)CN(c2ccc(-n3cnnn3)cc2[N+](=O)[O-])C1 (centres undefined),-3.5,0,38,130,100,i,0.9
CN(C)S(=O)(=O)c1ccc(S(=O)(=O)N2CCN(CCC#N)CC2)cc1,-1.7,7,.,.,96,i,0.97
# The results go on:
SMILES,GALR2 ag,PKD1 inh,Insulin prom inh,Insulin prom inh cell count,RGS16-Gao,HSV augment,HSV augment primary fold
Cc1ccc(NC(=O)CCN2C(=O)c3cccc4cccc(c34)C2=O)cc1,.,9,.,.,106,i,0.87
Cc1ccc2c(CSc3nc4ccccc4c(=O)n3CCCO)cc(=O)oc2c1C,2.5,-2,14,114,98,i,0.68
CC(NC(=O)COC(=O)c1cc(=O)[nH]c2ccccc12)c1ccccc1 (centres undefined),.,-16,-14,137,99,i,1
Cc1occc1-c1nnc(SCC(=O)NC2CCCC2)n1-c1ccccc1,-0.1,-3,25,40,112,i,0.96
COc1ccc(NC(=O)COC(=O)c2ccc(O)cc2)c([N+](=O)[O-])c1,.,0,.,.,102,i,0.84
CC(C)(C)C1CCC2(CC1)C(C#N)=C(SCC(=O)NC1CCCCC1)NC(=O)C2C#N (centres undefined),-1.3,-11,23,116,106,i,0.98
Brc1ccc(-c2cn3ccccc3n2)s1,-0.5,1,86*,156*,93,i,0.98
Cn1c(SCC(=O)Nc2ccc(F)cc2F)nnc1-c1cccnc1,-1.1,-2,29,64,101,i,0.78
COc1ccc(/C=C(\C#N)C(=O)OCC(=O)N2CC(C)OC(C)C2)cc1 (centres undefined),.,-9,21,100,105,i,0.9
Cc1ccc(NC(N)=S)cc1,-1.0,-13,15,62,111,i,0.97
Cc1nc(NC(=O)C23CCC(C)(C(=O)O2)C3(C)C)sc1C (centres undefined),-0.3,-12,33,91,104,i,0.99
Cc1ccc(C)c(S(=O)(=O)N2CCN(CC(=O)Nc3cc(C)on3)CC2)c1,0.1,0,.,.,101,i,0.95
CC(C(=O)Nc1sc2c(c1C(=O)NCC1CCCO1)CCC2)N1C(=O)c2ccccc2C1=O (centres undefined),-0.2,-1,.,.,84,i,1
CC(=O)Cc1nsc(NC(=O)c2ccccc2Cl)n1,.,-7,-27,80,109,i,0.98
O=S(=O)(c1cccc(-c2nnco2)c1)N1CCCC1,0.9,-2,62,78,97,i,0.9
CCCNS(=O)(=O)c1cc(Br)cc2c1N(C(=O)CC)CC2,-1.8,-5,-47,32,97,i,0.8
Cc1[nH]c2ccccc2c1/C=C/c1cc[n+](C)cc1,-1.7,-16,-32,99,103,.,.
COc1ccc(CCNCC(O)c2ccccc2)cc1 (centres undefined),.,-3,42,77,112,i,0.93
CCCN1CNc2c(c(=O)[nH]c(=S)n2CCc2ccccc2)C1,.,-2,0,129,98,i,0.88
Cc1ccc(/C(O)=C/c2nc3ccccc3oc2=O)cc1,.,.,.,.,90,i,0.97
CCOC(=O)Cn1nc(-c2ccccc2)c2cnc3ccc(CC)cc3c21,-0.6,-6,0,77,.,.,.
COc1ccc(C2/C=C\CN(C(=O)c3ccccc3)CC(=O)N2Cc2ccc(F)cc2)cc1 (centres undefined),.,.,.,.,108,i,0.84
O=S(=O)(NNc1ccc(Cl)nn1)c1ccc(F)cc1,-0.1,-5,.,.,96,i,0.98
O=C(c1ccco1)N1CCN(S(=O)(=O)c2ccc(C3CCCCC3)cc2)CC1,0.6,-3,-41,92,93,i,1.1

# Sorted by heavy-atom count (highest first): 4 of the compounds above
SMILES,GALR2 ag,PKD1 inh,Insulin prom inh,Insulin prom inh cell count,RGS16-Gao,HSV augment,HSV augment primary fold
CC(C(=O)Nc1sc2c(c1C(=O)NCC1CCCO1)CCC2)N1C(=O)c2ccccc2C1=O (centres undefined),-0.2,-1,.,.,84,i,1
CCOC(=O)Cn1nc(-c2ccccc2)c2cnc3ccc(CC)cc3c21,-0.6,-6,0,77,.,.,.
COc1ccc(CCNCC(O)c2ccccc2)cc1 (centres undefined),.,-3,42,77,112,i,0.93
CC(=O)Cc1nsc(NC(=O)c2ccccc2Cl)n1,.,-7,-27,80,109,i,0.98

# Profiles from above:
# Record of O=C(c1ccco1)N1CCN(S(=O)(=O)c2ccc(C3CCCCC3)cc2)CC1 : GALR2 ag = 0.6; PKD1 inh = -3; Insulin prom inh = -41; Insulin prom inh cell count = 92; RGS16-Gao = 93; HSV augment = i; HSV augment primary fold = 1.1
# Record of CC(C(=O)Nc1sc2c(c1C(=O)NCC1CCCO1)CCC2)N1C(=O)c2ccccc2C1=O (centres undefined) : GALR2 ag = -0.2; PKD1 inh = -1; Insulin prom inh = .; Insulin prom inh cell count = .; RGS16-Gao = 84; HSV augment = i; HSV augment primary fold = 1

# (next part)
SMILES,GALR2 ag,PKD1 inh,Insulin prom inh,Insulin prom inh cell count,RGS16-Gao,HSV augment,HSV augment primary fold
CC(C)N1CCN(Cc2cnc(-c3ccccc3)s2)CC1CCO (centres undefined),.,.,.,.,99,i,0.93
Cc1nc2ccccc2c2oc(C(=O)N3CCC(N4CCCCC4)CC3)cc12,-0.6,-11,.,.,113,i,0.99
CCN1CCN(C(=O)/C=C\C(=O)O)CC1,-2.2,0,22,139,101,i,1
OCCC1CN(Cc2ccc3ncccc3c2)CCN1Cc1ccccc1 (centres undefined),.,-2,.,.,94,i,1.1
CCCN1CCC(NCc2cn(C)nc2-c2ccc(Oc3ccccc3)cc2)CC1,.,.,.,.,103,i,0.75

# High-throughput results (PubChem BioAssay)
